# VDR inh – vitamin D3 receptor (human) inhibition. P11473. 400,000 tested, 0.93% active. Potency, µM, for inactives: max response, negative = inhibition, usual class: inhibitors. VDR-SRC2-3 peptide fluorescence polarization, 2 h. AID 504847; active = well fitted inhibition curve with a large enough effect; inconclusive = small, poorly fitted or top-dose-only effect, or another doubt; inactive = no such curve, though single readings can be large or run the other way; note: series mostly up to about 120 µM
# Target sequence (P11473 whole entry, looked up): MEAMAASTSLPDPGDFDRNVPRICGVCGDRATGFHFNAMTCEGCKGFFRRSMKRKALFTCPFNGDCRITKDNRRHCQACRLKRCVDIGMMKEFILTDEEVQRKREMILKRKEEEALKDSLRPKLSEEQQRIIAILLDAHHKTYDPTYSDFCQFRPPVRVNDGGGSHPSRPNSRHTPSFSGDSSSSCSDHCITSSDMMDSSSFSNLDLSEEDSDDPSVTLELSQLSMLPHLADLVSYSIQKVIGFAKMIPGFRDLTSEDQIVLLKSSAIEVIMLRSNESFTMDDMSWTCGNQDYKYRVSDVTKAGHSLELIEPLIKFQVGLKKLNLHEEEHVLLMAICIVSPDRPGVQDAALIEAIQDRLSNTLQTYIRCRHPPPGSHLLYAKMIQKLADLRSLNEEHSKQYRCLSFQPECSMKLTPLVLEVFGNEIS
#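 After 23 nl compound addition and a short centrifugation, plates sat for 2 hours at ambient temperature; polarization of fluorescence then indicated loss of VDR binding to peptide SRC2-3.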
# Active calls of the source: *; ? = inconclusive; & = joins results of further samples. % is set by controls: 0 for no effect and ±100 for the full control effect; potency is the fitted concentration of half-maximal effect. Only part of the results is shown; count on the stated rates, not on these rows.
SMILES,VDR inh
CSCC[C@H](N)C(=O)N1CCC(C(=O)N[C@H](C)C(=O)Nc2ccc(C(C)C)cc2)CC1,-3%
CCOC(=O)CN1C(=O)C(=O)N(Cc2c(C)cc(C)cc2C)C1=O,-6%
O=C(O)c1ccccc1-c1ccccc1C(=O)Nc1ccc(-c2nc3cc(Cl)ccc3o2)cc1,-27%
CCOC(CNC(=O)c1ccc2nc(N3CCC(C)CC3)sc2c1)OCC,6%
O=C(c1ccc(Cl)c([N+](=O)[O-])c1)N(Cc1ccco1)C1CCS(=O)(=O)C1 (configuration not stated),1%
CSc1ccccc1C(=O)Nc1cccc(C(C)O)c1 (configuration not stated),-1%
COc1cc(CCCN2C(N)=NC[C@@H]2Cc2ccc(O)cc2)cc(OC)c1OC,17%
CCOC(=O)C(=O)N=Nc1c(O)n(C)c2ccccc12,-11%
CCCNC(=O)COC(=O)/C(C#N)=C/c1cc(C)n(CCC)c1C,-10%
Cc1cc(C2=NNC(=NCCc3ccccc3)SC2)c(C)n1-c1c(C)n(C)n(-c2ccccc2)c1=O,-10%
CCOC(=O)N1CCN(Cc2ccc(OCC(O)CN3CCCCC3)cc2)CC1 (configuration not stated),-8%
CC(C)c1nnc(NC(=O)COc2ccc3c(c2)OCO3)s1,-10%
COc1ccccc1CNC(=O)c1ccc(NC2=NC3CS(=O)(=O)CC3S2)cc1 (configuration not stated),-7%
COc1ccc(CNC(=O)CN(Cc2ccccc2)S(=O)(=O)c2ccc(Cl)cc2)cc1,-5%
CCOC(=O)N1CCN(C(=O)Cn2nc(C)n3nc(-c4ccc(OC)cc4)cc3c2=O)CC1,-4%
O=C(CCNC(=O)c1ccc(Br)cc1)Nc1ccccc1N1CCCC1,-25%
CCn1c(SCc2cc(=O)n3ccsc3n2)nc2ccccc21,-20%
Cc1cccc(C)c1NC(=S)N(Cc1cccnc1)Cc1ccccc1Cl,-3%
COc1ccc(OC)c(NC(=O)CCN2CCC(C)CC2)c1,-2%
CC(C)CCNC(=O)CCSCCC(=O)NCCC(C)C,-2%

# Entries above with a carbonyl joined to an NH by a bond outside any ring:
SMILES,VDR inh
CSCC[C@H](N)C(=O)N1CCC(C(=O)N[C@H](C)C(=O)Nc2ccc(C(C)C)cc2)CC1,-3%
O=C(O)c1ccccc1-c1ccccc1C(=O)Nc1ccc(-c2nc3cc(Cl)ccc3o2)cc1,-27%
CCOC(CNC(=O)c1ccc2nc(N3CCC(C)CC3)sc2c1)OCC,6%
CSc1ccccc1C(=O)Nc1cccc(C(C)O)c1 (configuration not stated),-1%
CCCNC(=O)COC(=O)/C(C#N)=C/c1cc(C)n(CCC)c1C,-10%
CC(C)c1nnc(NC(=O)COc2ccc3c(c2)OCO3)s1,-10%
COc1ccccc1CNC(=O)c1ccc(NC2=NC3CS(=O)(=O)CC3S2)cc1 (configuration not stated),-7%
COc1ccc(CNC(=O)CN(Cc2ccccc2)S(=O)(=O)c2ccc(Cl)cc2)cc1,-5%
O=C(CCNC(=O)c1ccc(Br)cc1)Nc1ccccc1N1CCCC1,-25%
COc1ccc(OC)c(NC(=O)CCN2CCC(C)CC2)c1,-2%
CC(C)CCNC(=O)CCSCCC(=O)NCCC(C)C,-2%

# More compounds
SMILES,VDR inh
CCOC(=O)c1ccc(NC(=O)c2cnn(-c3ccc(C)cc3C)c2C2CCN(C(=O)OC(C)(C)C)CC2)cc1,0%
Cc1cc(C)c(S(=O)(=O)Nc2ccc3oc(C)c(C(=O)OC(C)C)c3c2)cc1C,13%
COc1ccc(CCC(C)NCc2ccc(C(F)(F)F)cc2)cc1 (configuration not stated),1%
CCOC(=O)c1c(-c2ccc(F)cc2)csc1NC(=O)CCN1C(=O)c2ccccc2C1=O,-9%
O=C(COC(=O)c1nc(Cl)ccc1Cl)Nc1cccc(S(=O)(=O)N2CCOCC2)c1,-7%
CC(C)(C)OC(=O)N(Cc1ccccc1)Cc1ccc(OCc2cccc(NC(=O)C3CC3)c2)cc1,19%
CS(=O)(=O)N(CC(=O)NCCSc1ccc(Cl)cc1)c1ccc2c(c1)OCO2,12%
COc1ccc(NC(=O)c2ccc(CNS(=O)(=O)c3cccc(OC)c3)cc2)cc1,-8%
COc1ccc(OC)c(N2C(=O)CC(Cc3ccc(Cl)cc3)C2=O)c1 (configuration not stated),13%
O=[N+]([O-])c1cccc(Cl)c1N1CCOCC1,-21%
COc1cccc(NC(=O)C(=O)c2cn(CC(=O)N3CCOCC3)c3ccccc23)c1,11%
COc1ccccc1N(CN1CCCC1=O)C(=O)c1c(F)cccc1F,4%
Cn1c(-c2ccc(C#N)cc2)c(C#Cc2ccccc2)c2ccccc21,1%
Cn1nc(C(=O)NCc2ccccn2)c2ccccc2c1=O,33%
CC(=O)N(C)c1ccc(NC(=O)c2ccc([N+](=O)[O-])cc2Cl)cc1,-3%
Nc1nnnn1N=C1CCCCC1,-2%
CCCCC(CC)CNC(=O)c1ccc2c(c1)OCO2 (configuration not stated),-16%
O=C(N/N=C/c1ccc(N2CCOCC2)cc1)c1cccs1,22%
CCOc1ccc(C(=O)c2cn(CC(=O)Nc3ccc(C)c(C)c3)c3ccc(OCC)cc3c2=O)cc1,-5%
Cn1c(=O)cc(SCC(=O)NCc2ccc(F)cc2)c2cc(Cl)ccc21,-16%
CCn1cnc2sc(C(=O)N3CCN(c4ccc(OC)cc4)CC3)c(C)c2c1=O,4%
Cc1cccc(NC(=O)CN2CCN(C(=O)c3ccc(OCc4cn5ccccc5n4)cc3)CC2)c1C,2%
CC(=O)/C=C(/C)NC(Cc1c[nH]c2ccccc12)C(=O)O (configuration not stated),7%&-9%
O=C(NC(=S)NNS(=O)(=O)c1ccccc1)c1cccnc1,20%
CC1CCCCN1S(=O)(=O)c1ccc(C(=O)Nc2nnc(-c3ccncc3)o2)cc1 (configuration not stated),-1%
O=C(NCc1ccco1)c1ccc(COCC(F)(F)F)cc1,4%
CCC(=O)N1c2ccccc2CC1C(=O)NCCc1ccccc1OC (configuration not stated),1%
CCOC(=O)N1CCC(Nc2c(-c3ccc(C)cc3)c(=O)c2=O)CC1,-5%
Cc1ncsc1CCOC(=O)C12CC3CC(CC(C3)C1)C2,14%
CCOc1ccc(CN2CCNC(=O)C2CC(=O)NCCc2ccccn2)cc1 (configuration not stated),-11%
COC(=O)c1ccc(C2c3c(oc4ccc(C)cc4c3=O)C(=O)N2Cc2ccc3c(c2)OCO3)cc1 (configuration not stated),-1%
CCn1c(=O)cc(OCC(=O)Nc2ccccc2C#N)c2ccccc21,-10%
Cc1ccc(S(=O)(=O)N2CCCN(S(=O)(=O)c3ccc(C)cc3)CC2)cc1,-11%
CCOC(=O)N1CCN(S(=O)(=O)c2c(C)[nH]c(=O)[nH]c2=O)CC1,-4%
CN(C)c1ccc(P(=O)(Nc2ccccc2)N2CCOCC2)c(NC(=O)c2cccs2)c1 (configuration not stated),9%
Clc1ccc(-c2cc(CN3CCCCC3)no2)cc1Cl,13%
O=C(O)c1c2c(nc3ccc(Cl)cc13)CCC2,-14%
CCCCCCn1nnc2sc(-c3ccccc3)cc2c1=O,8%
COCCCNC(=O)CNC(=O)c1nn(-c2ccc(OC)cc2)c(=O)c2ccccc12,9%
CC(Sc1n[nH]c(N)n1)C(=O)Nc1cccc2ccccc12 (configuration not stated),14%

# Arranged by formula weight (high to low): four of the compounds above
SMILES,VDR inh
Cc1cccc(NC(=O)CN2CCN(C(=O)c3ccc(OCc4cn5ccccc5n4)cc3)CC2)c1C,2%
COCCCNC(=O)CNC(=O)c1nn(-c2ccc(OC)cc2)c(=O)c2ccccc12,9%
O=C(NCc1ccco1)c1ccc(COCC(F)(F)F)cc1,4%
Clc1ccc(-c2cc(CN3CCCCC3)no2)cc1Cl,13%

# Next part
SMILES,VDR inh
COc1cc(C2C(C#N)=C(C)NC3=C2C(=O)c2ccccc23)cc(OC)c1OC (configuration not stated),-12%
CCS(=O)(=O)N1CCC2(CC1)OCCN2S(=O)(=O)c1ccc(OC)cc1,-8%
Cc1ccc(-n2c(=O)c3oc4ccccc4c3n(CC(=O)Nc3ccccc3)c2=O)cc1C,-5%
O=C(Nc1ccc([N+](=O)[O-])cc1)Nc1ccc(OC(F)F)c(Cl)c1,-3%
Cc1ccccc1NC(=O)c1cccc(N2C(=O)C3C4CC(C(Br)C4Br)C3C2=O)c1 (configuration not stated),0%
COc1ccc(Cl)cc1NC(=O)CCCN1C(=O)C(c2ccccc2)Oc2cccnc21 (configuration not stated),8%
COc1ccc(OC)c(S(=O)(=O)N2CCN(C(=O)CCc3ccccc3)CC2)c1,14%
CN1CCN(S(=O)(=O)c2cccc(C(=O)Oc3ccc(C(C)(C)C)cc3)c2)CC1,-8%
CCCCCCC#Cc1cncc(C(=O)NNC(=O)Nc2cc(Cl)cc(Cl)c2)c1,17%
Cc1cccc(OCC(=O)Nc2ccc3c(C)cc(=O)oc3c2)c1,-4%
CCN(CC(=O)Nc1c(F)cccc1F)C(=O)C1CCN(C(=O)Nc2ccccc2)CC1,5%
CC(O)CNc1nc2c(c(=O)n(C)c(=O)n2C)n1Cc1cccc(Br)c1 (configuration not stated),4%
COc1cccc2sc(NC(=O)c3ccc(Br)s3)nc12,23%
Cc1ccc(-c2noc(N=O)c2NO)cc1,0%
COc1ccc2oc(=O)c(C(=O)NCC3CCCO3)cc2c1 (configuration not stated),-17%
Cc1ccc(C(=O)c2sc(Nc3ccccc3F)c(S(=O)(=O)c3ccccc3)c2N)c(C)c1,5%
CC1CCN(C(=S)c2cccc([N+](=O)[O-])c2)CC1,10%
COc1ccc(OC)c(-c2nn(-c3ccccc3)cc2C(=O)NCC(c2ccco2)N2CCCC2)c1 (configuration not stated),0%
N#CC1(NC(=O)COC(=O)c2cc(O)c3ccccc3c2O)CCCCC1,45µM*
COC(=O)CCC(=O)NC1CC(C)(C)Cc2c1cnn2-c1ccc(F)cc1 (configuration not stated),2%
COc1cccc(C(=O)CSc2nnc(-c3ccco3)n2CC2CCCO2)c1 (configuration not stated),-11%
COc1ccccc1CNS(=O)(=O)c1c(C)nc2sccn2c1=O,-2%&7%
CN(C)c1ccc(C2Nc3ccccc3C(=O)N2CCN2CCNC2=O)cc1 (configuration not stated),-18%
Cc1c(C(=O)N(C)c2ccccc2Cl)cnn1-c1ccccc1,9%
Cc1ccc(CNC(=O)COC(=O)[C@@H]2CC(O)CN2S(=O)(=O)c2ccc3c(c2)OCCO3)cc1 (some centres not stated),-15%
O=c1c(N2CCc3ccccc3C2)csc2ccc(Br)cc12,21%
CC(C)C1=CC(=NS(=O)(=O)c2cccc([N+](=O)[O-])c2)C=C(C(C)C)C1=O,10%
CCCCNc1c(C(=O)OCC)c(=O)[nH]c2ccccc12,-1%
COC(=O)Cc1ccc(OC(=O)C2CCN(S(=O)(=O)c3ccc(OC)c(OC)c3)CC2)cc1,4%
CC(=O)Nc1ccc(OCc2ccc(S(=O)(=O)Cc3ccccc3)cc2)cc1,-6%
N#C/C(=C/c1cccc(O)c1)C(=O)NCc1ccc(Cl)cc1,?
O=[N+]([O-])CC(c1ccc(F)cc1)c1c[nH]c2ccccc12 (configuration not stated),13%
Cc1csc2c(N(C)CCO)ncnc12,-3%
Fc1ccc(NC(=S)Nc2cc(-c3ccccc3)[nH]n2)cc1Cl,-12%
O=C(CSc1nc2ccccc2[nH]1)N1CCN(c2ccccc2)CC1,13%
CCOC(=O)c1cc(-c2ccc(/C=C3/C(=O)NC(=O)C(C#N)=C3C)o2)ccc1Cl,?
CC1=C(C(=O)OCC2CCCO2)C(c2ccncc2)C2=C(CCCC2=O)N1 (configuration not stated),-6%
CCOC(=O)N1CCC(NC(=O)C2CCCN2C(=O)OCc2ccccc2)CC1 (configuration not stated),0%
O=C(O)c1ccc(CNC(=O)c2ccc(S(=O)(=O)N3CCCCC3)cc2)cc1,-6%
CC(=O)C(C(C)=O)C(NC(=O)c1cccnc1)(C(F)(F)F)C(F)(F)F,?
Cc1ccc(CSCC(=O)N/N=C/c2cccc(OC3CSC3)c2)cc1,6%
O=C(COC(=O)c1cccc(S(=O)(=O)N2CCCC2)c1)Nc1ccccc1C(F)(F)F,0%
CN1CCN(C(=O)C2CCCN(S(=O)(=O)c3ccc(Br)cc3)C2)CC1 (configuration not stated),-8%
Cc1ccc(C(=O)COC(=O)c2cc(Cl)nc3ccccc23)cc1,-6%
CCC(CC)C(=O)Nc1cccc(-c2nc3ncccn3c2C)c1,16%
O=C(Cn1cnc2ccccc21)Nc1cc(C(F)(F)F)ccc1N1CCOCC1,5%
O=Cc1c(NCCN2CCCC2)c2ccccc2[nH]c1=O,-5%
CNC(=O)/C(C#N)=C\c1ccc(CNS(=O)(=O)c2ccc(Cl)cc2)o1,?
O=C1CC(c2ccccc2)CC(=O)C1=CN1CCCC1 (configuration not stated),12%
CCOC(=O)c1cc(C)n(CC2CCC(C(=O)Nc3ccc(OC)cc3)CC2)c1C (configuration not stated),10%
COc1cccc(N2CC(C(=O)Nc3nnc(SCC(=O)c4ccccc4)s3)CC2=O)c1 (configuration not stated),4%
CC(c1nnc(SCC(=O)N2CC(=O)Nc3ccccc32)n1Cc1ccccc1)N(C)C (configuration not stated),0%
O=C(Nc1ccc2c(c1)OCO2)C1Cc2ccccc2CN1S(=O)(=O)c1cccs1 (configuration not stated),-7%
C[C@@]12C(=O)N(CC3CC3)CC(=O)N1[C@H](C1CC1)[C@@H]1C(=O)N(c3ccccc3)C(=O)[C@@H]12,-11%
COc1ccc(Cl)cc1C(=O)OCC(=O)Nc1cccnc1Cl,-5%
COc1cc(-c2cc(O)c(-c3ccc4ccccc4n3)c(=O)[nH]2)cc(OC)c1OC,-6%
COc1ccc(NC(=O)c2cc(-c3ccc4c(c3)OCO4)on2)cc1OC,-12%

# Screening results as filed in PubChem BioAssay.
